Bioassay records deposited in PubChem BioAssay by several laboratories.
Sa RN4220 lethal = kills Staphylococcus aureus RN4220; S. aureus RN4220 growth, OD600, 16 h; hit rate 0.33% among 330,000; inhibition, % (no concentration beside the values);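 active = z-score of -3 or lower and OD600 up to 0.18 on both plates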;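 note: plate controls were untreated cells for no effect and reference antibiotic for full effect; stock transfer was 100 nL into about 80 µL; one replicate is shown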
BJeLR viability = BJeLR cell viability loss. BJeLR (HRASV12) viability, CellTiter-Glo ATP luminescence, 48 h; reference of the scale not given here. inhibition, % (no concentration beside the values). hit rate 0.17% among 300,000. AID 1554;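 active = replicate mean above 50%; inconclusive = above 50% but judged a plate artefact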;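 note: 50 nL library stock added to about 25 µL; numbers are from one replicate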
PrP UTR inh = inhibition of PrP 5' UTR reporter expression; cell-based PrP 5' UTR mRNA reporter, plate reader; inhibition, % (no concentration beside the values); AID 488862; hit rate 0.35% among 340,000;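 active = every replicate at 50% or more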;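 note: 0 = median of the neutral control wells; tested in H4 reporter cells; numbers are from one replicate; inactives centre near -14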
Sa ugtP lethal = kills S. aureus RN4220 lacking UgtP; S. aureus RN4220 ugtP deletion, OD600 growth, 16 h; some inactives read as strong as hits; growth inhibition, % (test concentration not listed); hit rate 0.54% among 330,000; AID 1259309;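 active = z-score under -3 and OD600 up to 0.15 on both plates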;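 note: plate controls were untreated wells for no effect and antibiotic for full effect; wells of about 80 µL received 100 nL stock; the first replicate is given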
Mtb hypoxia inh = inhibitors of hypoxia-regulated fluorescent reporter in Mycobacterium tuberculosis; M. tuberculosis hypoxia-regulated fluorescent reporter, fluorescence; hit rate 0.1% among 300,000; fluorescence inhibition, % (concentration not given with the values); AID 1159583;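 active = 35 to 45% if threefold the growth effect, above 45% if 1.5-fold the growth effect; inactive = the rest, general growth blockers included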;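 note: wells of about 50 µL received 100 nL stock; 0% = vehicle wells and 100% = reference inhibitor wells; whole bacteria with a GFP reporter of the hypoxia response; strong numbers were not always called active; many hits fall short of the cut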
Autofluor counter = flagged as autofluorescent in microsphere protease counterscreen; hit rate 3.1% among 360,000; compound autofluorescence counterscreen, microsphere flow cytometry; stronger effect = higher value; fluorescence intensity (concentration not given with the values);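 active = at least 3 SD above the mean of all compounds, about 16000 in these data; inconclusive = too few beads counted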;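 note: 100 nL of 1 mM stock went into each well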
Mtb hypoxia inh growth = also measured in Mtb hypoxia inh; calls as there; growth inhibition, %; measured here: M. tuberculosis growth (absorbance);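 0% = vehicle and 100% = reference antibiotic; read after six days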
* = called active by the depositor; ? = inconclusive; . = no result given.

SMILES	Sa RN4220 lethal	BJeLR viability	PrP UTR inh	Sa ugtP lethal	Mtb hypoxia inh	Mtb hypoxia inh growth	Autofluor counter
CN(C)c1ccc(/C=N/NC(=O)c2ccc3c(c2)OCO3)cc1	.	-6	-38	.	.	.	3910
Cn1cc(SCC(=O)NCC2CCCO2)c2ccccc21 (centres undefined)	-17	-6	-9	-11	2	8	5828
Clc1ccc(-n2nnnc2-c2ccccc2)cc1	0.4	.	-16	12	3	-6	17854*
COc1ccccc1/C=N/NC1=NCCCCC1	.	8	-30	.	.	.	10452
O=C(N/N=C/c1ccc([N+](=O)[O-])o1)c1cn(-c2ccccc2)nc1-c1ccc(Cl)cc1	.	6	-12	.	.	.	1990
COc1ccccc1NC(=S)NCCc1ccc(OC)c(OC)c1	2.9	5	-7	15	11	15	3720
Cc1cccc(NC(=O)C2CCN(S(=O)(=O)c3cccs3)CC2)c1	0.7	4	-14	6	-119	-81	9671
O=C(NC1CCCCC1)C1CCN(C(=O)c2ccccc2Cl)CC1	3.2	-8	-10	2	3	2	3059
COCC(C)n1c(C)cc(C(=O)COC(=O)c2cc(=O)[nH]c3ccccc23)c1C (centres undefined)	6.3	.	41	2	-6	-1	4475
COc1ccc2c(c1OC)CN1CCc3cc4c(cc3[C@@H]1[C@@H]2O)OCO4	.	-7	-28	.	.	.	3990
CN(C)c1cccc2cccc(N(C)C)c12	1.9	-24	-11	5	-2	-3	.
COc1ccc(NC(=O)Nc2nc3c(s2)CCCC3)cc1	5.0	4	-103	-7	3	0	8102
Cc1ccc(C)c(N2CCN(C(=O)c3ccc4c(c3)c(C)c(C)n4C)CC2)c1	-4.8	4	-11	-3	8	-2	5724
O=c1cc[nH]c2c(Cl)cccc12	1.7	8	-13	4	6	-5	4094
CC(=O)c1ccc(N2CCCCCC2)c(F)c1	30	9	-62	-12	.	.	5335

Of the compounds above, these contain an aryl methoxy group.
SMILES	Sa RN4220 lethal	BJeLR viability	PrP UTR inh	Sa ugtP lethal	Mtb hypoxia inh	Mtb hypoxia inh growth	Autofluor counter
COc1ccccc1/C=N/NC1=NCCCCC1	.	8	-30	.	.	.	10452
COc1ccccc1NC(=S)NCCc1ccc(OC)c(OC)c1	2.9	5	-7	15	11	15	3720
COc1ccc2c(c1OC)CN1CCc3cc4c(cc3[C@@H]1[C@@H]2O)OCO4	.	-7	-28	.	.	.	3990
COc1ccc(NC(=O)Nc2nc3c(s2)CCCC3)cc1	5.0	4	-103	-7	3	0	8102

(list continues)
SMILES	Sa RN4220 lethal	BJeLR viability	PrP UTR inh	Sa ugtP lethal	Mtb hypoxia inh	Mtb hypoxia inh growth	Autofluor counter
CCn1cc(C(=O)O)c(=O)c2cc(F)c(N3CCNCC3)cc21	.	6	12	.	.	.	5519
CCOC(=O)C(c1ccccc1)C(Nc1ccc(Cl)c(Cl)c1)c1ccccn1 (centres undefined)	2.9	8	-6	-2	10	-5	4038
CCOc1ccc(NC(=O)CCn2c(=O)[nH]c3ccsc3c2=O)cc1	0.4	2	7	-1	1	-5	4376
Nc1cccc2c1C(=O)N(C(=O)c1ccc(Cl)c(S(=O)(=O)N3CCCCCC3)c1)C2=O	-0.3	-7	9	1	0	-2	3231
CCOc1ncccc1C(=O)OCC(=O)N1CCC(C)CC1	4.8	.	-7	8	4	3	3811
C#CCOCCOCCOCCNc1nc(N2CCN(C(=O)C(CC(N)=O)n3cc(C(N)C(C)C)nn3)CC2)nc(N2CCN(C(=O)C(CCCN=C(N)N)n3cc(C(N)C(C)CC)nn3)CC2)n1 (centres undefined)	4.2	.	.	-3	11	13	.
O=C(c1ccc(Cl)c(S(=O)(=O)N2CCOCC2)c1)N1CCOCC1	-2.6	-6	-7	-1	-2	-2	3014
CN(C)/C=C/C(=O)c1ccc(S(=O)c2ccccc2)cc1 (centres undefined)	3.8	2	-3	9	7	4	4550
CC(CN=[N+]=[N-])CN1CCC(C(C)(C)C)CCC1=O (centres undefined)	4.3	.	.	-8	11	20	.
CCn1c(C)nc2cc(C(=O)NNC(=O)c3ccc(C)cc3)ccc21	1.5	.	-26	0	-5	3	3950
C/C(=N\NC(=O)c1cc(O)cc(O)c1)c1ccc(NC(=O)Cc2ccccc2)cc1	.	-4	-28	.	.	.	5214
COc1ccc(OC)c(NC(=O)C(C)Oc2ccc(Br)cc2)c1 (centres undefined)	7.5	4	-26	-4	11	3	5048
CN(C)CCN1CC(C(=O)O)CC1=O (centres undefined)	-6.7	0	-21	-2	13	4	2867
Cn1cncc1C#Cc1c(-c2ccsc2)sc2ccccc12	82	.	-6	89*	.	.	3939
COC(=O)C1=C(c2ccc(-c3ccccc3)c(F)c2)CC2CCC1N2C(=O)NC1Cc2ccccc2C1 (centres undefined)	-2.6	.	.	9	6	8	.
Cc1ccc(Cl)cc1N1CCN(S(=O)(=O)c2cc3c(cc2C)NC(=O)CO3)CC1	-0.9	1	-24	3	2	-4	6983
CCN1CCN(C(=O)C2=CC(c3ccc(OC)cc3)=NS(=O)(=O)N2C)CC1	-6.3	4	-21	4	7	10	4320
CC(=O)Nc1ccccc1NC(=O)CC(C)=NNC(=O)C(=O)Nc1cccc(Cl)c1C	2.3	.	.	1	10	1	.
Cc1ccc(NCc2ccc(O)c3ncccc23)cc1	7.9	4	-14	6	3	-2	2461
Cc1cc(C(=O)CN2CCCC2)c(C)n1-c1ccc(F)cc1	9.4	0	-21	4	2	1	4660
Cc1nc(NC(=O)c2ccc(OCC(C)C)cc2)sc1Cc1ccc2c(c1)OCO2	-8.6	5	-10	10	5	11	5004
CCc1cc(=O)oc2cc(C)c(CN3CCCC3)c(O)c12	1.3	-10	-16	4	6	3	17050*
CCCNC(=O)CN1C(=O)NC(CCc2ccccc2)C1=O (centres undefined)	2.6	-3	-7	8	2	-4	3339
C=CCn1c(CCNC(=O)C(C)(C)C)nc2ccccc21	-0.1	1	-20	0	7	3	3941
Nc1c(Cl)cc(-c2csc(NCCc3nc4cc(Cl)c(Cl)cc4n3CCCO)n2)cc1Cl	4.8	4	-33	22	11	-1	4313
CCN(CC)c1ccc(/C=N/Nc2nc(C)cc(=O)[nH]2)c(O)c1	.	67*	19	.	.	.	2063
Cc1c(NC(=O)c2cc3nc(-c4ccc(Br)cc4)cc(C(F)(F)F)n3n2)c(=O)n(-c2ccccc2)n1C	3.1	-8	-30	-4	10	8	10135
CC(C)C(=O)Nc1ccc(C(=O)c2ccccc2)cc1	6.9	-4	-63	-1	4	9	19934*
CC(C)CC1COCCS(=O)(=O)N1Cc1cccc(F)c1 (centres undefined)	7.1	.	.	0	14	13	.
Cc1onc(-c2ccccc2)c1C(=O)NCCSCc1ccco1	12	.	-1	3	18	12	?
O=C(Nc1nc2cc(Cl)ccc2s1)C1CCCN(S(=O)(=O)c2cccc3cccnc23)C1 (centres undefined)	22	3	-9	15	.	.	5055
Cc1cc(NS(=O)(=O)c2ccc(NC(=O)CCCOc3ccccc3C)cc2)nc(C)n1	6.4	-3	-21	-4	2	4	3394
Cc1ccc(N(CC(=O)NCC2CCCO2)C(=O)CCC(=O)Nc2cc(C)on2)cc1 (centres undefined)	4.3	-3	-7	9	-2	-7	4369
C/C=C/Cn1cccc(C(=O)Nc2ccc(OC)cc2)c1=O	-0.4	6	-1	3	4	7	4594
C(=Nn1cnnc1)c1ccc(OC2CSC2)cc1	4.3	.	.	5	-3	-3	.
COc1ccc(C)cc1NC(=O)c1ccccc1NS(=O)(=O)c1cccc2cccnc12	2.1	9	-10	58	0	0	2566
O=C(c1ccccc1)N(Cc1cccs1)C1CCS(=O)(=O)C1 (centres undefined)	4.8	-4	-13	7	0	-2	7912
O=C(c1ccc(S(=O)(=O)Cc2ccccc2F)c([N+](=O)[O-])c1)N1CCCCCC1	1.8	-6	1	-6	-6	4	3268
CC1CN(C(=O)C2CC2)C(C)CN1C(=O)C1CC1 (centres undefined)	5.7	1	-29	3	3	-2	2168
CC(C)COC(=O)N(C)c1ccc(C(O)(C(F)(F)F)C(F)(F)F)cc1	2.3	3	-41	1	.	.	4878
O=[N+]([O-])c1ccc(CSc2nc3ccccc3o2)cc1	-2.2	3	-57	4	3	-3	3350
CC(C)(C)c1cc(CN2CCCC(O)C2)c(O)c(C(C)(C)C)c1 (centres undefined)	2.9	-2	-14	75	4	10	10682
COc1cccc(-c2ccc(SCC(=O)NCCc3ccccc3)nn2)c1	10	-4	-24	3	-4	2	4138
OC(c1nc2ccccc2[nH]1)C(O)C(O)C(O)c1nc2ccccc2[nH]1 (centres undefined)	2.8	-14	.	2	-7	-3	.
CCN1CNC(=S)N(CCc2ccccc2)C1	2.6	15	-13	10	-1	-2	2079
Cc1ccc(C(=O)O/N=C(\N)Cc2ccc([N+](=O)[O-])cc2)c(Cl)c1	-1.9	-3	-32	4	2	4	5381
Cc1c(C=NNc2ccc(C(=O)O)cc2)c2ccccc2n1C	2.9	.	.	2	1	2	.
O=C(NC1CCc2ccccc21)C12CN(Cc3ccccc3)CC1C(c1cccc([N+](=O)[O-])c1)=NO2 (centres undefined)	-1.2	-2	-3	1	4	7	4175
O=C1NC(=S)N(c2ccccc2)C(=O)C1C(c1ccncc1)C1C(=O)NC(=S)N(c2ccccc2)C1=O (centres undefined)	0.3	7	-19	3	0	3	3441
c1ccc2sc(N3CCN(Cc4nnnn4CC4CCCO4)CC3)nc2c1 (centres undefined)	1.4	-6	-15	1	-4	-5	9500
CCN(C(=O)c1ccco1)c1nc(-c2ccc(OC)cc2)cs1	0.9	1	-54	29	3	7	3214
CCCCn1c(N)c(N(CC(C)C)C(=O)CSc2nnc(C)n2-c2ccccc2)c(=O)[nH]c1=O	-0.3	.	-10	3	3	8	3377
CC(=O)c1cc2c(cc1NC(=O)Nc1cccc(Cl)c1)OCCO2	-2.1	-8	-14	-10	.	.	4991
CC1CCN(CC(=O)Nc2ccc(C(=O)N3CCCCC3)cc2)CC1	1.2	-10	5	3	-9	-4	3697
NS(=O)(=O)c1ccc(N=Nc2ccc(O)c3ncccc23)cc1	9.3	33	17	-10	16	1	2337
CC(=O)Nc1ccc2c(COC(=O)CC3Sc4ccccc4NC3=O)cc(=O)oc2c1 (centres undefined)	6.6	-9	-27	-7	6	8	4418
CCNC(=O)C(=O)NCC1CCCN1S(=O)(=O)c1cccs1 (centres undefined)	2.6	1	-67	6	4	0	5373
O=C(NCCCn1ccnc1)/C(=C/c1ccco1)NC(=O)c1cccs1	6.1	-3	-14	11	-5	-1	3399
Cc1cc(=O)oc2cc(NC(=O)c3ccc(OC(F)F)cc3)ccc12	-1.8	-4	-42	1	-5	6	3565
O=S(=O)(Nc1ccc(Nc2ccccc2)cc1)c1ccc(F)cc1	1.0	-16	-21	-2	11	4	3565
Remaining list, next part.
SMILES	Sa RN4220 lethal	BJeLR viability	PrP UTR inh	Sa ugtP lethal	Mtb hypoxia inh	Mtb hypoxia inh growth	Autofluor counter
COc1ccc(OC)c(NC(=O)CSc2ncccc2C(=O)O)c1	0.1	1	-24	-8	.	.	2843
COC(=O)C1=C(C)N(Cc2ccccc2)C(=NCc2cc(OC)c(OC)c(OC)c2)NC1CCc1ccccc1 (centres undefined)	-2.8	.	.	-2	-5	7	.
CCOC(=O)c1sc(-c2ccc(OC)cc2)cc1NC(C)=O	3.4	1	-29	3	14	1	2871
CCCSc1nc(C)c(CC(=O)O)c(=O)[nH]1	-17	-1	-10	-3	24	-13	3310
Cc1onc(-c2ccccc2)c1C(=O)N1CCN(S(=O)(=O)c2ccc3c(c2)OCCO3)CC1	-1.9	6	-5	-3	-7	-3	9147
O=C(CSc1nnc(CNC(=O)c2ccco2)o1)Nc1ccc(Br)cc1	3.4	-14	-24	1	5	3	5555
CC(C)c1ccc(N2C(=NC(=O)C3CCCO3)SC3CS(=O)(=O)CC32)cc1 (centres undefined)	1.4	6	-6	0	0	0	5874
CC(C)Cn1ccc(=O)n(CC(C)C)c1=O	4.0	4	-19	-3	1	3	6656

Single records, from the list above:
CC(C)Cn1ccc(=O)n(CC(C)C)c1=O is entered as Sa RN4220 lethal: 4.0; BJeLR viability: 4; PrP UTR inh: -19; Sa ugtP lethal: -3; Mtb hypoxia inh: 1; Mtb hypoxia inh growth: 3; Autofluor counter: 6656
O=C(CSc1nnc(CNC(=O)c2ccco2)o1)Nc1ccc(Br)cc1 is entered as Sa RN4220 lethal: 3.4; BJeLR viability: -14; PrP UTR inh: -24; Sa ugtP lethal: 1; Mtb hypoxia inh: 5; Mtb hypoxia inh growth: 3; Autofluor counter: 5555

Outcome played no part in choosing rows; any-hit rate near 4%.
